Screening results (PubChem)
TRPML1 ag = agonists of human TRPML1 channel. Q9GZU1. TRPML1-expressing cells, Ca2+ dye fluorescence, FDSS; host cell line not named in the record; reference of the full effect not given here. activation, % (concentration not given with the values). 0.12% of 410,000 active. AID 624414; in the data active = activation above about 50%; inconclusive = about 30% to 50%; inactive = below about 30%; further: 0% is about no effect; the text of the record puts the active cut at 80%
Target sequence (Q9GZU1 whole entry, looked up): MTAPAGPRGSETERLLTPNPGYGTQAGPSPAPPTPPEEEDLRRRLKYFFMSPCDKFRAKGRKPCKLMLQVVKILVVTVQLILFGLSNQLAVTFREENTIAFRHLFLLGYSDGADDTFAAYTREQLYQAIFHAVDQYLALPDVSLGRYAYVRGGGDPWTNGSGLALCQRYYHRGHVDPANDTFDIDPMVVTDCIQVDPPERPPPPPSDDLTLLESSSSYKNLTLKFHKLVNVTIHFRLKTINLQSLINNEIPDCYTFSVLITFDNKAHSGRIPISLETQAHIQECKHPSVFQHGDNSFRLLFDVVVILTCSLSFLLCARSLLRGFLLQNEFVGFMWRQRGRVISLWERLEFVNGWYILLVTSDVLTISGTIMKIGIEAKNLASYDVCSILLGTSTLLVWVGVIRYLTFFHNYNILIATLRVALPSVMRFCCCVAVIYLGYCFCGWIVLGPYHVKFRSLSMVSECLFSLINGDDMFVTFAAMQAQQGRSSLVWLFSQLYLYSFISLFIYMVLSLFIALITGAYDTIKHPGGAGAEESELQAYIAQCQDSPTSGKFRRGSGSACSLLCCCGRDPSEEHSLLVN
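Tetracycline-induced TRPML1-DL cells are seeded and incubated overnight before loading with a no-wash Ca2+ dye and quencher. Agonist activity is taken from the 110 s fluorescence read following compound pin-transfer on an FDSS, before EC80 54-4 challenge.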
D2 agonist = human D2 receptor agonism in beta-arrestin assay; DiscoveRx PathHunter D2 beta-arrestin, luminescence, 90 min; 100% = 57 uM dopamine signal; P14416; activation, % (concentration not given with the values); AID 624465; 0.084% of 360,000 active; in the data active = activation above about 40%; inconclusive = about 15% to 40%; inactive = below about 15%; further: compound concentration not given in the record; the text of the record calls up to 30% inactive
Target sequence (P14416 whole entry, looked up): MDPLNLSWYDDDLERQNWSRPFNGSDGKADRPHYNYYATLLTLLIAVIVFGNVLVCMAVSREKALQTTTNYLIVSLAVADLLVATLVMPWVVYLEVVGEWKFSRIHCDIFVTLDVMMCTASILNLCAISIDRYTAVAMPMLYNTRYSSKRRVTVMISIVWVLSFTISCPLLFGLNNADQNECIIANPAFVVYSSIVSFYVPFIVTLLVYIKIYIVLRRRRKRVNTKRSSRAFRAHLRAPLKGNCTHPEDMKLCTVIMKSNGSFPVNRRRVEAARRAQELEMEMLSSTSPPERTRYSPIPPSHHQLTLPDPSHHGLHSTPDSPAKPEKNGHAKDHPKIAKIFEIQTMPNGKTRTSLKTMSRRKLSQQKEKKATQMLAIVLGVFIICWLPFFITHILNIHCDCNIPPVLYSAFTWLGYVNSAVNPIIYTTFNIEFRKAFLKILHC
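DiscoveRx PathHunter D2 beta-arrestin cells (2,100/well) attached overnight, then compound-stimulated 90 min at 37 C in HBSS/10 mM HEPES/0.1% Tween-20 buffer; beta-galactosidase complementation read by luminescence after 1 h at ambient temperature. Dopamine 57 uM final (EC100) as control.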
TRPML1 inh = inhibitors of human TRPML1 channel; Q9GZU1; 0.02% of 390,000 active; activity change, negative = inhibition, % (test concentration not listed); TRPML1-inducible cells, Ca2+ dye fluorescence, FDSS; active compounds read low; inhibition of EC80 agonist-evoked calcium signal; in the data active means activity change below about -50%; inconclusive means about -30% to -50%; inactive means above about -30%;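 further: stimulus is agonist 54-4 at its EC80 concentration; on the % scale 0 is the no-effect control and ±100 the full control effect; compound concentration not given in the record; the text of the record puts the active cut at -80%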
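Calcium fluorescence in TRPML1-DL cells induced overnight with Tet: a 110 s read after compound pin addition, then a 110 s antagonist read after challenge with 54-4 at 4 uM final (EC80).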
CtBP-E1A blk = CtBP/E1A binding inhibition. AlphaScreen GST-E1A/His-CtBP binding, 1536-well; active compounds read low; control for the full effect not named in the record. activity change, % (concentration not given with the values). 0.49% of 340,000 active; in the data active means activity change below about -65%; inconclusive means about -30% to -65%; inactive means above about -30%; further: on the % scale 0 is the no-effect control and ±100 the full control effect
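AlphaScreen with 125 nM GST-E1A and 125 nM His-CtBP (5X stocks) in Tris pH 8.0, 300 mM NaCl, BSA, Tween 20, TCEP. Compounds preincubated 2 h at 37 deg C, then glutathione donor/nickel acceptor beads added for 1 h at 37 deg C in dark.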
PINK1 expr mod = PINK1 expression modulation; PINK1 immunofluorescence, high-content cytometry, 24 h; Potency, µM (doses to about 76.6 µM), for the others: at the highest dose activation (PINK1 increase), hits mostly activators; 0.2% of 410,000 active; active = well fitted activation curve with a large enough effect; inconclusive = small, poorly fitted or top-dose-only effect; inactive = flat fitted curve, though single readings scatter; cell line not stated here;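 further: potency means the concentration at half of the fitted maximal effect; % of control where 0% means no effect; nearly all actives have a fitted effect of over 65% in size; a mitochondrial uncoupler was the plate control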
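Stable cell line treated 24 h with compounds at 5 concentrations (CCCP controls), then fixed and immunostained for PINK1 plus nuclear and cell stains; PINK1 immunofluorescence quantified by laser-scanning microplate cytometry.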
Six1-Eya2 inh = Six1/Eya2 interaction inhibition | AlphaScreen GST-Six1/His-Eya2 binding, biochemical; active compounds read low; control for the full effect not named in the record | 0.56% of 360,000 active | Q15475+O00167 | activity change, % (no concentration beside the values); in the data active = activity change below about -65%; inconclusive = about -30% to -65%; inactive = above about -30%; further: on the % scale 0 is the no-effect control and ±100 the full control effect
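AlphaScreen luminescence read after one hour at 37 °C in darkness. Pin-transferred compounds met GST-Six1 and His-Eya2 protein (5X stock 250 nM/500 nM) plus glutathione donor and Ni-chelate acceptor beads (5X, 50 ug/mL).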
Active calls of the source: *; ? = inconclusive; . = no result given; [ ] = another dose, or the depositor's remark.

SMILES | TRPML1 ag | D2 agonist | TRPML1 inh | CtBP-E1A blk | PINK1 expr mod | Six1-Eya2 inh
COc1cccc(C(=O)/C=C/Nc2cccc(O)c2)c1 | 0.4 | -2.0 | 2 | -1 | 5.0%[38.3 µM] | -7
COc1cccc(-c2nnc3n(Cc4ccccc4Cl)c(=O)c4ccccc4n23)c1O | -0.8 | . | -5 | . | -1.0% | .
COC(=O)c1ccccc1NC(=O)CC#N | 0.9 | 2.6 | -1 | 2 | -3.0% | 8
Cc1ccc(SCCC(=O)NCCSCc2ccco2)cc1 | 1.3 | -1.0 | 37 | 4 | -0.1% | -9
Cn1cc(SCC(=O)N2CCCc3ccccc32)c2ccccc21 | 0.1 | -1.8 | -2 | -7 | 3.8% | -8
COc1ccc(C2C=C(c3ccccc3)Nc3nc(CCCO)nn32)cc1 (stereo not given) | 5.7 | -3.9 | 1 | 3 | -4.2% | -4
CC(C)C(=O)c1c(C(C)C)nn2ccccc12 | -0.7 | -4.2 | -8 | 8 | 0.6% | 2
COc1ccccc1NS(=O)(=O)c1cc(NC(=O)c2cccs2)ccc1N1CCCCC1 | 0.7 | 3.4 | 5 | 0 | 0.1% | 1
CCc1nc2c(OCc3ccc(C(F)(F)F)cc3)cccn2c1N(C)C(=O)c1ccc(OC)cc1 | -0.4 | -5.4 | . | -7 | 5.1% | -10
O=C1N2CCCCC1(c1ccccc1)CCCC2 | -0.5 | . | . | -2 | 0.1% | 5
COc1ccc(N2CCN(C(CNC(=O)C(=O)NCCCn3ccnc3)c3cccnc3)CC2)cc1 (stereo not given) | 0.4 | -6.3 | 0 | . | 1.2% | -5
O=C(CSc1ncnc2c1nnn2-c1ccc(F)cc1)NCC1CCCO1 (stereo not given) | -0.7 | -2.9 | 11 | 13 | 1.3% | -3
Cc1cc(O)c(C2(O)C(=O)Nc3ccccc32)cc1C (stereo not given) | . | -5.1 | . | 4 | -0.3% | -1
O=C(Cn1cnc2c(cnn2-c2ccc(Cl)cc2)c1=O)N1CCN(c2ccccc2)CC1 | -0.5 | 3.4 | -6 | 1 | 2.3% | -1
CC1=C(C(=O)N(C(C)C)C(C)C)CC(CC(=O)NCCCCc2ccccc2)C(=O)N1CCCN1CCCC1=O (stereo not given) | -0.1 | -5.7 | 7 | 2 | -0.4% | -1
COc1ccc(S(=O)(=O)N2CCCC2C(=O)n2nc(C)cc2C)cc1 (stereo not given) | 0.8 | -1.8 | -6 | 0 | 6.3% | 0
N#C/C(=C\c1ccccc1Cl)C(=O)NC(=O)Oc1ccccc1 | -0.1 | 1.1 | -11 | -5 | -3.3%[38.3 µM] | -1
Fc1ccc(Nc2ncnc3c2nc2n3CCCCC2)c(F)c1 | -0.4 | . | -18 | . | 0.1% | .
CCOc1ccc(NC(=O)c2c(Nc3ccccc3C)sc(C(=O)c3ccccc3)c2N)cc1 | 6.6 | . | 24 | . | 0.7% | .
COc1ccc(CNC(=O)CN(CC2CCCO2)C(=O)CNS(=O)(=O)c2ccc(F)cc2)cc1 (stereo not given) | 0.4 | -2.7 | 0 | 0 | -0.6% | -2
Cc1ccccc1C(=O)Nc1ccc2nc(SCC(=O)N3CCc4ccccc43)sc2c1 | 0.3 | . | 4 | . | -0.4% | .
Cc1cnc(NC(=O)CSc2nnc(Cc3ccccc3)o2)s1 | 0.4 | 1.3 | 5 | -1 | -0.7%[38.3 µM] | -2
Cc1ccc(CN2C(=O)c3ccccc3CC2(C)C(=O)NC2CCCCC2)cc1 (stereo not given) | 0.1 | . | -21 | . | -0.4% | .
Cc1cc(C(=O)COC(=O)CCc2nc3ccccc3c(=O)[nH]2)c(C)n1CC1CCCO1 (stereo not given) | 1.7 | -2.5 | 11 | 1 | -0.3% | -9
COC(=O)N/N=C/c1cn(CC(C)COc2ccccc2)c2ccccc12 (stereo not given) | 0.0 | 0.4 | 7 | -5 | -0.9% | -7

Compound profiles (already shown). Order of values: TRPML1 ag | D2 agonist | TRPML1 inh | CtBP-E1A blk | PINK1 expr mod | Six1-Eya2 inh
COC(=O)c1ccccc1NC(=O)CC#N as listed: 0.9 | 2.6 | -1 | 2 | -3.0% | 8
Cc1cc(C(=O)COC(=O)CCc2nc3ccccc3c(=O)[nH]2)c(C)n1CC1CCCO1 (stereo not given) as listed: 1.7 | -2.5 | 11 | 1 | -0.3% | -9

The main list resumes, starting three compounds before the break.
SMILES | TRPML1 ag | D2 agonist | TRPML1 inh | CtBP-E1A blk | PINK1 expr mod | Six1-Eya2 inh
Cc1ccc(CN2C(=O)c3ccccc3CC2(C)C(=O)NC2CCCCC2)cc1 (stereo not given) | 0.1 | . | -21 | . | -0.4% | .
Cc1cc(C(=O)COC(=O)CCc2nc3ccccc3c(=O)[nH]2)c(C)n1CC1CCCO1 (stereo not given) | 1.7 | -2.5 | 11 | 1 | -0.3% | -9
COC(=O)N/N=C/c1cn(CC(C)COc2ccccc2)c2ccccc12 (stereo not given) | 0.0 | 0.4 | 7 | -5 | -0.9% | -7
Cc1cccc(N2CCN(C(=O)Cn3ncc4c([nH]c5ccccc54)c3=O)CC2C)c1 (stereo not given) | 1.0 | . | 36 | . | 5.1% | .
Cn1cc(S(=O)(=O)NC(c2ccccc2)c2ccccc2)c(=O)n(C)c1=O | 0.6 | 3.3 | 19 | 6 | 0.0% | 2
CC1=NN(c2ccccc2C)C(=O)C1 | 1.0 | -1.6 | -13 | -25 | -3.2% | -5
NCCCn1c(C(=O)c2cc(Cl)c(N)c(Cl)c2)c2ccc([N+](=O)[O-])cc2[n+]1[O-] | -0.7 | 6.9 | -10 | -16 | -1.3% | -10
COc1ccc(C(=O)Cn2nnc(-c3ccccc3NC(=O)C(F)(F)F)n2)cc1 | -0.4 | 0.2 | -5 | 8 | 3.1% | 6
O=C(NCC1CCCN1S(=O)(=O)c1cccs1)C(=O)Nc1ccccc1Cl (stereo not given) | 0.2 | -2.1 | 14 | 3 | 2.0% | -5
COc1ccc(/C(C)=N/NC(=O)CNC(=O)/C=C\c2ccccc2)c(OC)c1 | 1.6 | -26 | -2 | . | 1.7% | 12
O=C(C[C@@H]1C/C=C\C[C@@H](Cc2ccc(F)cc2)C(=O)OC[C@@H]2CCCN2C1=O)N[C@H](CO)Cc1ccccc1 | 2.0 | 0.8 | 20 | 0 | 3.5% | 2
COc1ccc(C(=O)OCC(=O)NC2CC2)cc1 | -0.5 | 0.8 | -3 | 3 | 0.9% | -3
O=C(NCCCN1CCOCC1)c1cc2c(s1)-c1ccccc1OC2 | -0.2 | -2.0 | 15 | -13 | 3.8% | 0
COc1ccc(/C(C)=N/N2CCOCC2)c(O)c1 | 0.9 | 9.0 | 19 | 3 | 0.8% | 2
N=c1c2ccccc2nc2n1CCCCC2 | 0.4 | -6.1 | -5 | -2 | -1.6% | 6
O=C(c1ccc2ccccc2n1)N1CCN(c2ccccc2Cl)CC1 | 0.0 | -3.5 | -2 | 1 | 2.9% | 7
O=C(c1snnc1-c1ccccc1)N1CCOCC1 | -0.1 | -6.1 | -8 | 2 | 3.2% | 7
CCOCCn1c(CN(C)Cc2ccccc2)nc2c1c(=O)n(C)c(=O)n2C | -0.2 | 7.0 | -18 | 1 | -0.3% | 0
CCC(=O)Nc1ccc(NC(=S)NC(=O)Cc2ccccc2)cc1 | 2.6 | -0.1 | -5 | 4 | -1.8% | -8
COc1ccc(OC)c(N(CC(=O)Nc2cccnc2)S(C)(=O)=O)c1 | -0.6 | -2.6 | -9 | 4 | -0.5%[38.3 µM] | 4
Cc1ccc(C(=O)NC(=S)N2CCCC2)cc1 | -0.4 | -3.0 | -4 | -21 | -0.7% | 3
Cc1ccc(C)n1-c1ccc(N(C)C)cc1 | -0.6 | 4.0 | 4 | -17 | 5.4% | ?
CCOc1ccc2nc(N/C(N)=N/C(=S)Nc3ccc(OC)cc3)nc(C)c2c1 | 0.6 | -1.0 | -13 | -16 | 11% | -8
COc1ccc(C2CC(=O)N(Cc3ccccc3C)c3c2c(C)nn3-c2nc(C)cc(C)n2)c(OC)c1 (stereo not given) | -0.5 | . | 36 | . | 1.6% | .
COc1ccc(CCn2nnc3ccccc3c2=O)cc1OC | -0.2 | -3.6 | 10 | -4 | 2.1% | 0
COCCn1c(-c2cc(OC)c(OC)c(OC)c2)nc2oc3cc(OC)ccc3c(=O)c2c1=O | 0.9 | -2.5 | -23 | . | 1.7% | 3
COc1ccc(C2c3c(n(C)c4ccccc34)C(=O)N2CC(=O)Nc2ccc(C)cc2Cl)cc1 (stereo not given) | -0.1 | . | -11 | . | -0.3% | .
COC(=O)Cc1cc(OC)c(OC)cc1S(=O)(=O)N(C)C | -0.3 | 1.2 | 7 | 0 | 0.5% | 2
Later entries
SMILES | TRPML1 ag | D2 agonist | TRPML1 inh | CtBP-E1A blk | PINK1 expr mod | Six1-Eya2 inh
CCOc1ccc(-c2c(C)nn3c(C)c(C(=O)NCC(C)c4ccccc4)cnc23)cc1OCC (stereo not given) | 4.3 | . | 7 | . | -0.9% | .
CC(C)(C)c1cc[n+](-c2[nH]c(=O)sc2/C=N/N=C(\[O-])c2cccnc2)cc1 | -0.4 | -1.6 | -5 | -17 | -0.9% | -10
COc1ccc(S(=O)(=O)N(CC(=O)NCc2cccnc2)c2ccc(C)cc2)cc1OC | -0.8 | -0.8 | -6 | 5 | -1.1% | 1
COc1ccccc1N1CCN(C(=O)c2ccoc2C)CC1 | 0.4 | -0.3 | 9 | -2 | -0.1% | 10
CC(=O)CC(=O)Nc1ncc(C(F)(F)F)cc1Cl | 0.7 | 2.3 | -5 | -9 | 0.2% | 4
CCN(CC)CCNC(=S)Nc1ccc2nc(N3CCN(C)CC3)cc(C)c2c1 | -0.3 | -7.8 | 33 | 1 | 1.7% | 2
O=C(c1ccc(F)cc1F)N1CCCC(c2nc(-c3ccc(F)cc3)no2)C1 (stereo not given) | 1.9 | 1.0 | -21 | 0 | 3.1% | -4
CSc1ccc(NC(N)=S)cc1 | 1.2 | -6.1 | -2 | . | 0.3% | -4
CCc1ccc2c(CN3CCN(Cc4ccccc4)CC3)cc(=O)oc2c1 | -0.1 | -5.9 | -2 | -4 | 0.0% | -1
Cc1ccc(Cn2nnc(C(=O)Nc3cc(C)ccc3C)c2N)cc1 | 16 | -4.2 | -10 | -7 | 2.1%[38.3 µM] | -5
Cc1ccc(CNCc2ccc3c(c2)n(C)c(=O)n3C)cc1 | -0.5 | . | 15 | . | 0.8% | .
CCc1ccc(-c2nc(CS(=O)CC(=O)NCc3cccnc3)c(C)o2)cc1 (stereo not given) | -0.9 | 0.4 | -9 | -1 | 3.9% | 9
CC1CCN(S(=O)(=O)c2ccc3nc(N4CCN(c5ccccc5F)CC4)ccc3c2)CC1 | ? | . | -29 | . | 2.7% | .

Given with values under each structure: part of the list above
Below each compound: TRPML1 ag, D2 agonist, TRPML1 inh, CtBP-E1A blk, PINK1 expr mod, Six1-Eya2 inh
O=C(c1ccc(F)cc1F)N1CCCC(c2nc(-c3ccc(F)cc3)no2)C1 (stereo not given)
→ 1.9, 1.0, -21, 0, 3.1%, -4
CSc1ccc(NC(N)=S)cc1
→ 1.2, -6.1, -2, ., 0.3%, -4
CCc1ccc2c(CN3CCN(Cc4ccccc4)CC3)cc(=O)oc2c1
→ -0.1, -5.9, -2, -4, 0.0%, -1
